miR-21 reporter – miR-21 reporter, rising signal; HeLa miR-21 FLuc reporter, luciferase, 48 h; Potency, µM (doses to about 38.3 µM), without a hit: at the highest dose reporter change, positive = more light; 340,000 tested, under 10 active; AID 2288; active = well fitted rising curve with a large enough effect; inconclusive = small, poorly fitted or top-dose-only effect; inactive = no such curve, though single readings can be large or run the other way;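 further: % of control where 0% means no effect; miR-21 action dims this reporter so a rising signal means less miR-21 action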
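Using DMEM plus 10% FBS, HeLa miR-21-FLuc cells are incubated with test compounds (final up to about 40uM) for 48 hours; firefly luciferase signal is then imaged following reagent-mediated lysis.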
Rango complex inh – Rango-importin beta binding inhibition | Potency, µM (series often up to 92.2 µM), for the others: at the highest dose inhibition of complex formation | Q14974 | AID 540263 | Rango CFP/YFP FRET sensor + importin beta, 45 min | 340,000 tested, 0.031% active; active = rising FRET ratio curve, often small or poorly fitted; inconclusive = mostly compound fluorescence or quenching in the first reads; inactive = flat curves in all reads;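 further: potency means the concentration at half of the fitted maximal effect; 0% = DMSO wells and 100% = buffer wells lacking importin beta; nearly all actives have a fitted effect of over 15% in size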
Target sequence (Q14974 whole entry, looked up): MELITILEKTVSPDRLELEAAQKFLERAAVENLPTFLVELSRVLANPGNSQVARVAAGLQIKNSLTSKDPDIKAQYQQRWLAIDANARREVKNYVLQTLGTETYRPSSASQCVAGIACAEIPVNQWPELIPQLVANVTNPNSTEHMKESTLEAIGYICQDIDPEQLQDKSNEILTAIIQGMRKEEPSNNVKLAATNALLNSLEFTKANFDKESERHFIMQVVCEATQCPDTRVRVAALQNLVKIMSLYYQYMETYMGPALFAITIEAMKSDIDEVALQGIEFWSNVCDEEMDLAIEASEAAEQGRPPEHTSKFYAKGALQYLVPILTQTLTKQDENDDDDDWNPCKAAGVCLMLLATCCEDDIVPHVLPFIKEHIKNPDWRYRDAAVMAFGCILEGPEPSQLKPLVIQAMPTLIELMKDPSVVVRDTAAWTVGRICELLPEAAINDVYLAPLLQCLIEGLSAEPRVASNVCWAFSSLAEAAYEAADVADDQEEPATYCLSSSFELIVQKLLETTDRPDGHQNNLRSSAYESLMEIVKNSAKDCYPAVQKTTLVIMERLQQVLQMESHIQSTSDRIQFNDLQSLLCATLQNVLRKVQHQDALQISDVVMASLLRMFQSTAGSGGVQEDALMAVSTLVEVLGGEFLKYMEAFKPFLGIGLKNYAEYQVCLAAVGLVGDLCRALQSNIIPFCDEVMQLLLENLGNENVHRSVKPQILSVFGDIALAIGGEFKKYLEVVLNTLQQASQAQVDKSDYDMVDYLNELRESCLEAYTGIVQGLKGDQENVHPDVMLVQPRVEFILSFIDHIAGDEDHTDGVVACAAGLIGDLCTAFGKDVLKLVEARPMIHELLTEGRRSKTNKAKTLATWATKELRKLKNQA
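FRET biosensor Rango (snurportin 1 IBB between N-terminal EYFP and C-terminal Cerulean), 50 nM in PBS/1 mM DTT/0.02% Tween-20/0.1% BSA, preincubated 5 min RT with compound; 0.125 microM importin beta added, 45 min RT, CFP/YFP FRET ratio read.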
Rango release inh – inhibitors of RanGTP-induced Rango-importin beta complex dissociation; O95149+P62826; Biochemical FRET Rango-importin beta, RanGTP-induced dissociation; Potency, µM (series often up to 46.1 µM), without a hit: at the highest dose activity change, negative = inhibition; 340,000 tested, 0.071% active; active means falling FRET ratio curve, often poorly fitted, with flat reads before Ran was added; inconclusive means other falling curves, or compound fluorescence or quenching; inactive means flat or rising ratio curve;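 further: potency means the concentration at half of the fitted maximal effect; % of control where 0% means no effect; nearly all actives have a fitted effect of over 45% in size; -100% = wells without RanGTP and RCC1; the record marks most hits as doubtful in a second field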
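FRET read at 45 min, room temperature: inhibitors block the CFP/YFP signal rise when RanGTP (0.6 uM Ran, 2 mM GTP, 0.2 uM RCC1) frees Rango (0.1 uM) from importin beta (0.25 uM). Pre-read after 5 min compound exposure flags interference.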
GLA inh pH 4.5 – blocks human alpha-galactosidase A at pH 4.5; purified enzyme, 4-MU-alpha-Gal fluorescence, pH 4.5; P06280; 230,000 tested, under 10 active; activity change, negative = inhibition, % at 105 µM; inconclusive = small, poorly fitted or top-dose-only inhibition, or a rising curve; inactive = flat fitted curve, though single readings scatter; no compound was filed as active;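 further: 0% = full activity with enzyme and -100% = basal without enzyme; dose as in the result columns while the protocol names 77 µM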
* = called active by the depositor; ? = inconclusive; / = not tested or not shown. The list is partial; rates above refer to the full screens.

compound | miR-21 reporter | Rango complex inh | Rango release inh | GLA inh pH 4.5
COc1ccc(C(C(=O)NC2CCCC2)N(CCN2CCOCC2)C(=O)c2ccc(OC)c(OC)c2)cc1 (stereo not drawn) | -4% | -1.9% | 4% | -3
COc1cc(OC)cc(C(=O)NC2CC(C)(C)NC(C)(C)C2)c1 | 0% | 1.0% | -8% | /
COc1ccc(OC)c(NC(=O)c2ccccc2N(Cc2ccccc2)S(C)(=O)=O)c1 | -5% | -3.2% | 19% | 2
COc1ccc(C(=O)N2c3cc4c(cc3C(C)=CC2(C)C)OCO4)cc1 | 16% | 0.3% | 27% | 2
CCCCc1nc(C(N)=O)c2[nH]c(=O)n(-c3ccc(OCC)cc3)c2n1 | -9% | 3.6% | -1% | /
CN1CCN(CC(=O)Nc2cc(S(=O)(=O)N3CCOCC3)ccc2Cl)CC1 | / | -6.1% | -4% | /
COc1ccccc1C(=O)NCCC(=O)NCC(c1ccccc1OC)N1CCCC1 (stereo not drawn) | / | -1.4% | 8% | /
CC1CN(c2nc3ccccn3c(=O)c2/C=C(\C#N)S(=O)(=O)c2ccccc2)CC(C)O1 (stereo not drawn) | -5% | ? | ? | -1
S=C1N(c2ccccc2)C(c2ccccc2)N2CCCN12 (stereo not drawn) | -1% | -1.2% | 6% | 1
Cc1csc(NC(=O)CNC(=O)OCc2ccccc2)n1 | 0% | -1.4% | -19% | 7
O=C(COc1ncnc2sccc12)Nc1ccc2c(c1)OCCO2 | -5% | 5.1% | -14% | 7
C#CCOCCOCCOCCNc1nc(N2CCN(C(=O)CCCCCCCCCCNC(=O)[C@@H](CCSC)n3cc(CCO)nn3)CC2)nc(N2CCN(C(=O)CCCCCCCCCCNC(=O)[C@H](CCCN=C(N)N)n3cc(C[C@@H](C)CC)nn3)CC2)n1 | / | 1.4% | -9% | /
CC(C)OC(=O)c1cc2c(ccn2C)n1CC(=O)N1CCC(Cc2ccccc2)CC1 | 3% | ? | -16% | 7
CCN(CC)S(=O)(=O)c1cc(C(=O)OCC(=O)Nc2cccc(C)c2C)ccc1F | -1% | -0.9% | -11% | -4
Cc1ccc(S(=O)(=O)N(C)CC(=O)O/N=C(\N)c2cccc(Br)c2)cc1 | -2% | 2.6% | -5% | /
COc1cccc(OC)c1C(=O)Nc1cccc(-n2cnnn2)c1 | -6% | -1.6% | 0% | /
CC(C)C(NC(=O)c1ccccc1F)C(=O)NCc1ccccc1 (stereo not drawn) | -4% | -1.8% | 4% | /
COc1ccc(/C=N/N2CCN(C)CC2)cc1OC | -2% | 1.0% | 1% | -4
Cc1ccc(O)c(NC(=O)c2cc(-c3cccs3)on2)c1 | -102% | ? | -24% | /
Cc1ccc2sc(-c3ccc(NC(=O)CCN4C(=O)c5ccccc5C4=O)cc3)nc2c1 | -65% | / | / | 6
Cc1ccc(C2=NN(C)c3nc4ccccc4n3C2)cc1 | -12% | ? | ? | -7
CC1(C)c2ccccc2N(CC(N)=O)C12C=Cc1ccccc1O2 (stereo not drawn) | 4% | -0.9% | 34% | -9
CCCCNc1cc(=O)n(C)c(=O)n1C | 0% | 0.6% | -10% | 1
NC1=Nc2cccc3cccc1c23 | -2% | ? | ? | -1
COc1ccc(C(=O)/C=C/Nc2cccc(C)n2)cc1OC | -58% | ? | ? | -9

Continuation:
compound | miR-21 reporter | Rango complex inh | Rango release inh | GLA inh pH 4.5
N#Cc1ccc(/C=C2\CCn3c2nc2cc(C(=O)O)ccc2c3=O)cc1 | -1% | 1.8% | 11% | /
COc1ccc(CNC(=O)c2cnc3n(c2=O)CCS3)cc1 | -12% | 3.5% | 13% | 6
N#CCC(=O)N/N=C\c1ccc(OC/C=C/c2ccccc2)cc1 | -41% | 5.3% | 0% | /
Cc1cc(-c2ccccc2)[nH]c(=O)c1S(=O)(=O)c1ccc(Cl)cc1 | 0% | 6.0% | -15% | 10
CC1CCCCN1S(=O)(=O)c1ccc(C(=O)Nc2nnc(C3=COCCO3)o2)cc1 (stereo not drawn) | -1% | 4.9% | -10% | /
CCCCC(CC)C(=O)Nc1ccccc1C#N (stereo not drawn) | -6% | -2.2% | -8% | 0
Cc1cc(NC(=O)/C=C/C(=O)N(CC(=O)NC2CCCC2)c2cccc3ccccc23)no1 | 22% | 3.8% | -4% | -1
CCOC(=O)CNC(=O)CCNS(=O)(=O)c1ccc2c(c1)c(=O)n(C)c(=O)n2C | -1% | 1.9% | 18% | 2
Cc1ccc(C(=O)c2ccc(N3CCOCC3)c(F)c2)cc1 | -53% | -1.7% | 5% | -16
CC(=O)c1cccc(NC(=O)N2CCc3ccccc3C2)c1 | -46% | -3.3% | -9% | 1
Cc1cc(/C=N/NC(=O)c2ccc(CN3CCOCC3)cc2)c(C)n1-c1ccccc1 | 0% | 2.6% | -15% | -3
Cc1ccccc1NC(=O)c1cc(S(=O)(=O)N2CCOCC2)cs1 | 2% | 0.3% | 8% | -19
COc1ccc(OC)c(NC(=O)Nc2ccc(Cl)cc2)c1 | -6% | -0.1% | -1% | -8
Cc1ccc(CSc2nnc(CNc3ccc(F)cc3)o2)cc1 | -2% | -2.6% | 1% | -19
O=S(=O)(c1ccc(Cl)cc1)N1CCN(C(=S)Nc2ccc(F)c(Cl)c2)CC1 | -1% | -5.2% | -5% | -12
Cc1ccc(CN(C(=O)N2CCN(C)CC2)S(=O)(=O)c2ccc(C)cc2)cc1 | / | 3.4% | -12% | /
COc1ccc(CC(NC(C)=O)C(=O)NC2CCN(C(=O)Nc3ccc(C#N)cc3)CC2)cc1OC (stereo not drawn) | -7% | -2.5% | 12% | -2
O=S(=O)(c1ccc(Cl)s1)N1CCCCC1 | 0% | -0.7% | -10% | 1
CC(=O)Nc1ccccc1O | -17% | -3.1% | 6% | 5
CC(C)CCn1cnc2c1c(=O)[nH]c(=O)n2Cc1ccccc1 | 3% | -4.2% | -9% | /
CCOc1cc(CNCC(O)c2ccccc2)cc(Cl)c1OC (stereo not drawn) | -7% | 5.2% | 20% | 7
CCN1CCN(CCCNC(=O)c2cn(CCOC)c(=O)c3c2c2ccccc2n3C)CC1 | 1% | 0.0% | 9% | -1
CCN(CC)CCN1C(=O)C(O)=C(C(=O)c2cccs2)C1c1ccc(C)o1 (stereo not drawn) | -14% | ? | -16% | 2
Cc1ccccc1NC(=O)c1cccc(NC(=O)c2ccccc2C(=O)O)c1 | / | -4.6% | -1% | /
COc1ccc([N+](=O)[O-])cc1C1NN=C(c2cccc3ccccc23)S1 (stereo not drawn) | 0% | 1.4% | -12% | -2

Other compounds follow:
compound | miR-21 reporter | Rango complex inh | Rango release inh | GLA inh pH 4.5
CCC(C)NC(=O)c1nn(C)c(=O)c2ccccc12 (stereo not drawn) | -3% | 6.5% | 1% | -15
Cc1ccc(-n2ncc(C(=O)O)c2C2CCN(C(=O)OC(C)(C)C)CC2)cc1 | -5% | -0.6% | -14% | 2
COc1ccccc1OCCCn1c(C)c(C#N)c2ccccc21 | 3% | 0.3% | 18% | -7
CCN1C(=NCCCOC(C)C)N[C@@H](c2ccccc2)[C@H](C(=O)OC)[C@H]1C | -3% | -0.9% | 1% | /
CCn1c2ccccc2c2cc(CNCc3ccc(OC)cc3OC)ccc21 | 19% | 6.0% | -5% | -10
COc1ccccc1Oc1ccc(NC(=O)c2ccccc2C)cc1 | -3% | 0.1% | -7% | -20
O=c1[nH]c(Nc2ccc3c(c2)OCCO3)nnc1Cc1ccc(Cl)cc1 | 3% | 12% | -21% | 0
O=C(CNCc1ccccc1Cl)NCc1ccco1 | -4% | -1.5% | -1% | 2
O=C(O)CCC(=O)NNC(=O)c1ccc(-c2ccccc2)cc1 | -1% | -1.2% | -14% | 1
CC(=O)OCC(COC(C)=O)OC(C)=O | / | -0.3% | ? | -6
O=C(CCC(=O)Nc1ccccc1)NNC(=O)C(c1ccccc1)c1ccccc1 | -30% | 1.4% | 0% | 6
CC(C)OC(=O)Cn1c(=O)sc2ccccc21 | -6% | 0.8% | 5% | -16
COc1cc(/C=C/c2nnc3c4ccccc4ncn23)cc(OC)c1OC | 15% | -2.8% | 2% | 3
CC(=O)c1ccc(NC(=O)CCNS(=O)(=O)c2cc(Br)cnc2N)cc1 | 5% | 19% | 5% | /
Cc1cc(N2CCN(C)CC2)ccc1NC(=O)c1cccc(S(=O)(=O)N2CCc3ccccc3C2)c1 | -3% | 0.7% | 8% | -2
CCN(CC)CCN(C(=O)c1ccc2ccccc2c1)c1nc2ccc(OC)cc2s1 | -3% | -0.6% | 0% | /
CC(=O)Nc1ccc(-c2csc(NC(=O)C3CSC4(C)CCC(=O)N34)n2)cc1 (stereo not drawn) | / | ? | 0% | /
C=CCOc1ccccc1CNc1ccc2c(c1)OCCO2 | -20% | -0.4% | -22% | -1
CCCN1C(=O)COc2ccc(C(=O)c3ccccc3C(=O)O)cc21 | 4% | 1.7% | 4% | 0
Cc1ccc(-c2cc(C(F)F)n3ncc(C(=O)Nc4c(C)nn(Cc5c(Cl)cccc5Cl)c4C)c3n2)cc1 | 0% | 3.7% | 37% | -1
Cc1c(NC(=O)COC(=O)/C=C/c2cccc(Cl)c2)c(=O)n(-c2ccccc2)n1C | / | -4.5% | -4% | /
CCc1ccccc1NC(=O)c1nnn(CC(=O)Nc2ccccc2C)c1N | 2% | 8.2% | -15% | 10
COc1ccc(/C=C\c2onc(C)c2S(=O)(=O)N2CCC(C(=O)NCCC(C)C)CC2)cc1 | -2% | -0.6% | 1% | -2
Cc1nn(C(=O)CN2C(=O)c3ccccc3C2=O)c(C)c1Br | 1% | 4.7% | 3% | 12
CC(=O)Nc1ccc(S(=O)(=O)NC(C)CCc2ccccc2)cc1 (stereo not drawn) | 6% | 3.6% | 2% | /

Following part:
compound | miR-21 reporter | Rango complex inh | Rango release inh | GLA inh pH 4.5
N#Cc1ccsc1NC(=O)COC(=O)CCCSc1nc2ccccc2s1 | 24% | 1.2% | -13% | 3
COc1cc(Cl)c(C)cc1NC(=O)CCNC(=O)c1ccco1 | -3% | 7.9% | 5% | /
Cc1ccc(C(=O)NNC(=O)Cc2ccccc2)cc1 | -37% | -4.0% | -3% | 4
FC(F)(F)c1cc(-c2ccccc2)nc(NCc2cccs2)n1 | -8% | -0.3% | 1% | 3
COc1ccc2[nH]c3c(c2c1)CCN1C(=O)N([C@@H](C)C(=O)NCCc2ccc(F)cc2)C(=O)[C@]31C | 11% | 0.7% | -6% | /
Cc1ccc([N+](=O)[O-])c(-c2n[nH]c(=S)n2-c2cccc(Cl)c2)c1 | -11% | 4.9% | 10% | -28
Cc1c(C#N)c(O)[nH]c(=O)c1N=Nc1ccc(Cl)c(C(=O)O)c1 | 0% | -0.5% | -1% | /
CCOC(=O)c1cnc(SCC(=O)N2CCN(c3ccccc3)CC2)nc1N | -4% | -1.0% | 3% | 6
CC(=O)C1=C(C)NC(SCC(=O)c2ccc(Cl)cc2)=C(C#N)C1c1ccco1 (stereo not drawn) | -4% | ? | ? | -7
COc1ccccc1CC(=O)NC1CC(C)(C)NC(C)(C)C1 | 0% | ? | -11% | -4
COc1ccc(-c2c(-c3cc(OC)cc(OC)c3)n(C)c3ccc(-c4ccc5cc[nH]c5c4)cc23)cc1 | / | -1.4% | -5% | /
Cc1cc2ccccc2n1CCNC(=O)c1ccccc1 | 0% | 0.9% | ? | -14
CC(NC(=O)COc1ccc(Br)cc1)C(=O)O (stereo not drawn) | -1% | -1.7% | 11% | -2
COc1cccc(OC)c1C(=O)NC(=S)Nc1ccc2oc(=O)ccc2c1 | -6% | 6.8% | -1% | -15
CC(=O)NCCC(=O)Nc1nc(-c2ccc3ccccc3c2)cs1 | -18% | -2.9% | 19% | /
Cc1ccc(S(=O)(=O)NCC(=O)OCC(=O)c2cccs2)cc1 | -7% | -0.9% | -19% | -12

4 entries picked at random from the list so far:
compound | miR-21 reporter | Rango complex inh | Rango release inh | GLA inh pH 4.5
Cc1ccc(C(=O)NNC(=O)Cc2ccccc2)cc1 | -37% | -4.0% | -3% | 4
Cc1c(C#N)c(O)[nH]c(=O)c1N=Nc1ccc(Cl)c(C(=O)O)c1 | 0% | -0.5% | -1% | /
CC(NC(=O)COc1ccc(Br)cc1)C(=O)O (stereo not drawn) | -1% | -1.7% | 11% | -2
FC(F)(F)c1cc(-c2ccccc2)nc(NCc2cccs2)n1 | -8% | -0.3% | 1% | 3

Source: PubChem BioAssay
